FGF22 binding: binders of human FGF22 protein, primary screen, FGF22 synaptogenesis inhibitor project, biophysical, thermal shift, single point; Fibroblast growth factor 22 (Homo sapiens), Q9HCT0; recombinant FGF22 thermal shift, SYPRO orange fluorescence; percent of sucrose octasulfate shift, DMSO zero; calls only at 9.99 µM; actives 1.5% (n = 340,000); AID 651658, 2012;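 active means melting point raised past a set limit in the mean and every replicate; three in four hits are not shown here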
Target sequence (Q9HCT0 whole entry, looked up): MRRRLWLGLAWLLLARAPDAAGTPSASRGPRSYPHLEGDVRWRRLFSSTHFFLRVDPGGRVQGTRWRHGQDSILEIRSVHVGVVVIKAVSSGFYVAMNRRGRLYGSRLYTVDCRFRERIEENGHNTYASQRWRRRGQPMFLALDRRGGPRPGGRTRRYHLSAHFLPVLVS
UCH37 DUB inh: inhibitors of human UCH37 deubiquitinase, primary screen, biochemical, Ub-AMC cleavage, fluorescence. Ubiquitin carboxyl-terminal hydrolase isozyme L5 (Homo sapiens), Q9Y5K5. purified proteasome/UCH37. inhibition, % (no concentration beside the values). actives 0.33% (n = 330,000). AID 588478, 2011;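 active means mean of two replicates above 20%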;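 further: 0% = compound-free wells with enzyme and 100% = wells lacking proteasome; stock transfer was 100 nL into about 20 µL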
Target sequence (Q9Y5K5 whole entry, looked up): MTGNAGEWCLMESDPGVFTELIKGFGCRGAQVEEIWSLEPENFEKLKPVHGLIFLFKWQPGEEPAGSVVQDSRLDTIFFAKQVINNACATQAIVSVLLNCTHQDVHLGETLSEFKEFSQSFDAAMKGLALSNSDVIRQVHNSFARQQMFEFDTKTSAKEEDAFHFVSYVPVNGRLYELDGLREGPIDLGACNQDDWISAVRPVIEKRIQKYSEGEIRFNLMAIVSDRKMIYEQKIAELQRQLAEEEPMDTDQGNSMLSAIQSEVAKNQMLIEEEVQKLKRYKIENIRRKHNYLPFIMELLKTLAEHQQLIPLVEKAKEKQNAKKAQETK
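Material: Human UCH37 enzyme supplied as purified proteasome complex | Schedule: 30 min compound-proteasome preincubation then 25 min substrate reaction, room temperature | Detection: AMC fluorescence from Ub-AMC cleavage, excitation 355 nm, emission 460 nm | Benchmarks: Wells without proteasome as full block, compound-free enzyme plus substrate as uninhibited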
T cruzi repl: inhibitors of intracellular T. cruzi growth, primary screen, luminescence, NIH3T3 host cells; T. cruzi beta-gal in NIH3T3, 90 h; inhibition, % (no concentration beside the values); actives 1.4% (n = 300,000); AID 1885, 2009;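 active means mean inhibition across valid replicates above about 55%, limit read from the data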;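 further: signal also drops with host cell toxicity which is not excluded here; 0% = plate median of DMSO wells and 100% = zero luminescence signal; higher percent means less beta-gal luminescence so fewer parasites; stock transfer was 50 nL into about 50 µL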
Bfl-1 A1 inh: caspase 3/7 activation in MEF A1-2A-BIM cells, primary screen, A1 inhibitor project, cell-based, luminescence, HTS; Caspase-Glo 3/7 luminescence, 3 h; percent of clofoctol response, vehicle zero; caspase activation, % (test concentration not listed); actives 0.066% (n = 330,000); AID 2462, 2010;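 active means over half of replicate activation scores above 10%, or exactly half above 10 with the replicate mean above 10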;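 further: wells of about 30 µL received 50 nL stock; many hits fall short of the cut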
rRNA inh HTS: reduced GFP signal of wild-type E. coli, primary screen, bacterial rRNA inhibitor project, GFP/RFP fluorescence, OD600, single point. E. coli WT GFP vs humanized-ribosome RFP mutants, 24 h; stronger effect = lower value; DMSO median 0, no signal -100. GFP signal change (wild-type ribosome), % (test concentration not listed). actives 1.6% (n = 350,000). AID 720706, 2013;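 active means significant combined selectivity score with lowered wild-type GFP, culture density cut under 30%, mutant RFP and density less affected; inactive means any of these conditions unmet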; further: one replicate is shown; some compounds called inactive have numbers as strong as hits
AF4-AF9 inh: inhibitors of AF4 peptide binding to AF9, primary screen, biochemical, AlphaScreen, biotin-AF4 peptide, FLAG-AF9, single point. actives 0.47% (n = 350,000). AID 651704, 2012. inhibition, % at 10 µM;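 active means every replicate reaching a set inhibition limit, whatever the replicate mean, cut at about 25% in these data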;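 further: 0% = plate neutral control median and 100% = total signal loss; the record names both 10 and 1 µM as test concentration; the first replicate is given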
Target sequence (P42568 whole entry, looked up): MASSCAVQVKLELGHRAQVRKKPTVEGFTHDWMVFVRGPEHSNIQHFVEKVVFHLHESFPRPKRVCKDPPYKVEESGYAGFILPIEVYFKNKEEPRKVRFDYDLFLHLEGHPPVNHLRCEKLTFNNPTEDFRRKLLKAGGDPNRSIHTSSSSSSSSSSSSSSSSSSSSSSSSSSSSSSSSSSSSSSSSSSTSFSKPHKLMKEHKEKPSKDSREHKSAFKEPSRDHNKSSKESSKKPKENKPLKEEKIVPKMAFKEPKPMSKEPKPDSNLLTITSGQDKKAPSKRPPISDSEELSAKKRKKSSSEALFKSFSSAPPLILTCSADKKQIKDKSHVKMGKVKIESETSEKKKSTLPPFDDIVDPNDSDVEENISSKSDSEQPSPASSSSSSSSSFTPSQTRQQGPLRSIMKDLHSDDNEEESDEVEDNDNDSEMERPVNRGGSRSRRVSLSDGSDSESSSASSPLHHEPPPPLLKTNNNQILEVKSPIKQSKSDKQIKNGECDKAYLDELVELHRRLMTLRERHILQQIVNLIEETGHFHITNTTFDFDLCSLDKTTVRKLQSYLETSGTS
Beta cell apopt: inhibitors of cytokine-induced beta cell apoptosis, primary screen, luminescence | INS-1E cytokine-induced death, ATP luminescence, 48 h; percent of positive-control rescue, neutral wells zero | AID 435005, 2010 | protection from apoptosis, % (no concentration beside the values) | actives 0.8% (n = 300,000);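 active means all replicates at 75% or more, or half of them and the mean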;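 further: 0% = cytokine-treated negative control wells and 100% = positive control rescue; higher means more ATP so stronger rescue from cytokine killing; wells of about 40 µL received 100 nL stock; the first replicate is given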
E coli growth: E. coli growth inhibition, primary screen, OD600; Escherichia coli growth, 23 h; stronger effect = lower value; OD600 absorbance (concentration not given with the values); actives 0.21% (n = 330,000);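 active means OD600 absorbance below the run mean of sample wells minus 3.6 SD, in any replicate, cut at about 0.56 in these data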;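 further: stock transfer was 300 nL into about 60 µL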
rRNA inh HTS OD600: further read-out of rRNA inh HTS, marked with its call; OD600 change, %; measured here: OD600 growth;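 optical density of the mix in the first replicate; 0 = DMSO median and -100 = no signal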
rRNA inh HTS RFP: also measured in rRNA inh HTS; calls as there; RFP signal change, %; measured here: RFP humanized mutant strains;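 first replicate; 0 = DMSO median and -100 = no signal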
* hit, by the source's call; i = inactive; . = no result given. This is a subset; rates above refer to the full screens.

SMILES	FGF22 binding	UCH37 DUB inh	T cruzi repl	Bfl-1 A1 inh	rRNA inh HTS	rRNA inh HTS OD600	rRNA inh HTS RFP	AF4-AF9 inh	Beta cell apopt	E coli growth
CCCN(CCC)CCNC(=S)Nc1ccc2nc3n(c(=O)c2c1)CCCCC3	.	0.1	5	0.6	12	12	1.4	1.6	9	0.68
CN(C(=O)c1ccc(NC(=O)Cc2cccc(NC(=O)C3CCCN(C(=O)C4CCC4)C3)c2)cc1)C1CCCC1 (stereo not given)	i	3.1	.	0.5	-8	-3	5.9	-1.0	-2	0.7
O=C(O)c1ccc(CS(=O)c2cccc(C(F)(F)F)c2)o1 (stereo not given)	.	0.2	-7	0.1	.	.	.	.	-2	0.72
COc1ccc(CN2CCN(C(=O)c3ccccc3F)CC2)c(OC)c1OC	i	1.3	-7	0.3	3	-14	-3.0	.	.	0.63
Cc1ccc(S(=O)(=O)/N=C(\c2ccccc2)N(C)S(=O)(=O)c2ccccc2)cc1	i	.	-4	0.5	5	0	2.3	4.8	-13	.
CN(C)C(=O)CCc1ccc2c3c([nH]c2c1)[C@]1(CCc2ccccc2)[C@@H](C(=O)N2CCCCC2)C[C@H](CC(=O)NCCC2=CCCCC2)C(=O)N1CC3	i	5.0	.	.	7	10	-1.4	-2.7	.	0.69
Cc1ccc(C)c(OCc2nnc(SCC(=O)NC(=O)NCc3ccco3)o2)c1	i	1.0	2	-0.2	0	-7	2.2	-1.2	-4	0.71
Cc1c(NC(=O)c2cc(CC(C)C)on2)c(=O)n(-c2ccccc2)n1C	i	3.2	-17	0.2	1	9	-0.7	-11	-5	0.67
Cc1ccc(CN(Cc2ccccn2)C(=O)Nc2c(F)cccc2F)cc1	i	0.6	-4	1.9	-5	-3	4.5	0.3	2	0.7
Cc1cc(Cl)ccc1OCCCC(=O)NCCCn1ccnc1	i	2.5	-7	-0.3	-11	-12	-6.8	1.8	-8	0.66
CCN(CC)S(=O)(=O)c1ccc(C)c(NC(=O)c2cc(C)oc2C)c1	i	2.4	9	0.7	-11	-9	1.0	1.2	0	0.65
CCOC(=O)c1c(C)[nH]c(C)c1C(=O)COC(=O)c1c(OC)cccc1OC	i	5.2	12	0.4	5	-1	-1.9	-1.5	2	0.73
O=C(c1ccccc1F)N1CCN(Cc2nc3sc4c(c3c(=O)[nH]2)CCCC4)CC1	i	0.2	10	-0.3	8	-11	5.6	-4.1	.	0.69
CC1CCN(S(=O)(=O)c2ccc(C(=O)N3CCN(c4ccccc4F)CC3)cc2)CC1	i	4.6	29	0.6	16	16	-1.4	7.8	5	0.64
COc1cc(NC(=O)CN2C(=O)c3ccccc3C2=O)c(C(=O)O)cc1OC	.	-5.3	-5	1.0	.	.	.	.	-9	0.74
O=c1cc(COc2ccc(Cl)c(Cl)c2)nc2sccn12	i	-3.9	17	-1.7	1	5	2.8	-6.8	4	0.67
c1ccc(N=P(c2nc3ccccc3o2)(N2CCOCC2)N2CCOCC2)cc1	.	1.5	-20	0.0	.	.	.	.	0	0.62
Cc1ccc(N(C)C(=O)N2CCN(c3ccccn3)CC2)cc1	i	-3.7	5	0.3	-5	-13	3.9	-1.1	2	0.72
Oc1c(Br)cc(Cl)cc1C=Nc1ccc(N2CCOCC2)cc1	i	0.5	22	0.0	3	16	13	-0.5	.	0.65
COc1ccc(NC(=O)CSc2nc3nc(C)cc(C)c3c(=O)[nH]2)cc1OC	i	3.5	.	-0.2	-2	3	-2.4	-2.2	-3	0.67

Next section.
SMILES	FGF22 binding	UCH37 DUB inh	T cruzi repl	Bfl-1 A1 inh	rRNA inh HTS	rRNA inh HTS OD600	rRNA inh HTS RFP	AF4-AF9 inh	Beta cell apopt	E coli growth
COc1ccc(OCCCC(=O)OC(C)C(=O)Nc2ccc(C)cc2)cc1 (stereo not given)	i	-0.6	-3	1.0	-15	-8	-4.8	0.8	0	0.66
COc1ccc(-c2cc(C(=O)NCCN3CCOCC3)c3ccccc3n2)cc1OC	i	2.4	-5	2.0	0	-9	-1.7	-2.4	4	0.71
O=C(CSc1nc2scc(-c3ccccc3)c2c(=O)[nH]1)NCCc1ccccc1	i	3.1	-6	0.2	1	4	0.9	-0.2	-2	0.75
N#Cc1ccccc1CSc1nc2ccsc2c(=O)n1Cc1ccccn1	.	1.4	11	0.4	.	.	.	.	6	0.7
CCCC(=O)Nc1sc(-c2ccccc2)c(-c2ccccc2)c1C(=O)O	i	-0.6	-14	-1.2	-43	-73	-10	0.4	-11	0.67
COc1ccc(C(=O)CC(Nc2ccc([N+](=O)[O-])cc2)c2ccc(Cl)cc2)cc1 (stereo not given)	.	4.4	64*	-0.8	.	.	.	.	16	0.71
Cc1cc(N2CCN(C)CC2)nc2ccc(NC(=S)N3CCCCC3)cc12	i	-2.1	53	.	5	0	-4.7	21	.	0.67
CCc1nnc(NC(=O)Cc2ccc(S(=O)(=O)N3CCCCC3)cc2)s1	i	3.8	.	-0.6	1	-2	-0.3	2.4	1	0.65
Cc1cc(C(=O)N/N=C/C=C/c2ccccc2)c(C)o1	i	.	11	-2.0	-25*	-8.4*	-4.1*	8.3	-2	.
COc1ccc(-c2cc3ccc(OC(C)C(=O)O)cc3oc2=O)cc1 (stereo not given)	i	i	-12	0.1	-4	3	-1.4	-9.4	-16	0.69
O=C(NCCCn1ccnc1)c1ccccc1Br	i	0.5	-6	-0.2	11	21	0.0	0.8	4	0.62
CCc1cccc(OCCCN2C(=O)NC(C)(C)C2=O)c1	.	3.3	-10	0.2	.	.	.	.	-1	0.7
CCn1cc(CCC(=O)O)c(C)n1	i	2.4	-13	-0.1	15	9	0.5	-2.0	-5	0.72
COc1cccc(N2CCN(c3nc(C)cc(C)c3C#N)CC2)c1	i	-6.2	4	1.0	-19	-19	0.1	1.7	-1	0.61
Cc1nn(CC(=O)NCc2cccc3ccccc23)c(=O)c2ccccc12	.	2.8	4	-0.3	.	.	.	.	0	0.74
O=C(NC(=S)N1CCN(c2ccc([N+](=O)[O-])cc2)CC1)c1ccccc1	i	7.5	-12	0.1	10	7	2.0	-2.7	.	0.66
CC(C)(C)NC(=O)COC(=O)CNC(=O)c1cc(Cl)cc([N+](=O)[O-])c1	i	2.8	-17	0.1	16	2	2.6	-0.7	-2	0.69
CCc1ccc(NC(=O)C(=O)N/N=C(\C)CC(=O)NCc2ccc(Cl)cc2)cc1	.	.	-5	0.1	-5	1	1.2	-2.0	-3	.
O=C(Nc1nccs1)c1ccc(F)c(S(=O)(=O)N2CCOCC2)c1	i	2.3	-7	0.2	-3	1	6.8	2.4	-5	0.72
O=C(NC1=NCCS1)c1ccncc1	.	2.2	0	0.7	.	.	.	.	.	0.74

Additional compounds.
SMILES	FGF22 binding	UCH37 DUB inh	T cruzi repl	Bfl-1 A1 inh	rRNA inh HTS	rRNA inh HTS OD600	rRNA inh HTS RFP	AF4-AF9 inh	Beta cell apopt	E coli growth
O=C(COc1ccccc1)Nc1c2c(nn1-c1ccc(F)cc1)CS(=O)(=O)C2	i	4.1	-5	0.5	.	.	.	-0.6	.	0.72
Cc1ccc[n+](-c2[nH]c(=O)sc2/C=N/N=C(\[O-])CCn2c3ccccc3c3ccccc32)c1	i	.	4	-0.8	-6	-5	0.0	-3.2	-8	.
CCN(CC)C(=O)COc1ccc(N(C)S(=O)(=O)c2ccc(NC(C)=O)cc2)cc1	i	1.5	6	0.4	3	11	-0.8	-50	-1	0.67
O=C(CSc1ccc(-c2ccc3c(c2)OCO3)nn1)Nc1nccs1	i	4.5	-5	-0.7	16	14	0.7	-0.8	-1	0.69
Cn1c(=O)c2c(nc(N3CCCCCC3)n2CC(=O)c2ccc(Br)cc2)n(C)c1=O	.	0.9	-10	-1.0	.	.	.	.	0	0.78
CCCCc1cc(=O)oc2cc(OCc3nn[nH]n3)ccc12	i	-45	-6	-1.0	-5	3	0.1	-2.9	-1	0.71
CCCOc1ccc(C(=O)NC(=S)Nc2nc3ccccc3s2)cc1	i	3.3	0	2.7	-1	11	-0.6	4.0	-7	0.68
COc1ccc(N2C(=O)c3cccc4c(N(C)CCO)ccc(c34)C2=O)cc1	i	2.6	-4	1.6	30	-2	8.4	1.7	5	0.67
NNC1=N[C@H]2CS(=O)(=O)C[C@H]2S1	i	0.4	-19	0.6	.	.	.	-5.2	1	0.69
OCCC1CN(C/C=C/c2ccco2)CCN1Cc1ccccc1 (stereo not given)	i	5.4	1	0.1	23	18	6.5	2.9	-2	0.63
O=C1CN(S(=O)(=O)c2cc(C(=O)O)ccc2Cl)c2ccccc2N1	.	-2.0	0	0.3	9	9	1.6	1.1	0	0.66
O=C(c1cccs1)n1nc(-c2ccc(Cl)cc2)nc1NCc1ccco1	.	2.7	7	0.4	.	.	.	.	-1	0.74
O=C1NCCCC1C(=O)NCCNC(=O)C(F)(F)F (stereo not given)	i	1.5	-17	-0.1	9	8	0.8	9.1	-3	0.71
O=C(CN1CCCCCC1)Nc1ccccc1	i	-0.5	-2	0.2	25	24	1.2	-0.6	-2	0.66
CC12CCC3c4cc(CN5CCOCC5)c(O)cc4CCC3C1CCC2=O (stereo not given)	i	0.0	.	.	-8	-18	10	4.3	.	0.68
CCN(c1ccccc1)S(=O)(=O)c1cc(C(=O)Nc2ccccc2Cl)ccc1F	i	2.5	13	0.3	-22	-24	-4.9	1.5	.	0.67
Cc1cccc2cc3c(NC(=O)C(C)(C)C)nn(CC(C)C)c3nc12	i	-104	36	1.3	0	11	0.8	-11	2	0.71
O=C(NNC(=O)c1cc(S(=O)(=O)N2CCOCC2)c(Cl)cc1Cl)c1ccccc1F	i	3.9	.	-0.1	-10	-8	5.1	0.7	-1	0.68
O=C(OCc1nnc(-c2ccccc2)o1)c1ccc(S(=O)(=O)NCc2ccco2)cc1	.	2.2	-3	0.5	.	.	.	.	2	0.73
Cn1ncc([N+](=O)[O-])c1C(=O)Nc1ccc(-c2ccccc2)cc1	i	6.5	7	0.3	.	.	.	-0.8	3	0.71
COc1ccc(NC(=O)CN(C)C(=O)c2cc(-c3ccccc3)nc3ccccc23)cc1	i	0.6	-4	0.5	-2	-14	15	0.3	-10	0.67

Some entries already given, limited to UCH37 DUB inh, Beta cell apopt and FGF22 binding.
smiles | UCH37 DUB inh | Beta cell apopt | FGF22 binding
CCN(c1ccccc1)S(=O)(=O)c1cc(C(=O)Nc2ccccc2Cl)ccc1F | 2.5 | . | i
Cc1cccc2cc3c(NC(=O)C(C)(C)C)nn(CC(C)C)c3nc12 | -104 | 2 | i
O=C(NNC(=O)c1cc(S(=O)(=O)N2CCOCC2)c(Cl)cc1Cl)c1ccccc1F | 3.9 | -1 | i
